Screening data (PubChem)
Calb biofilm kill = mixture kills Candida albicans biofilm cells; C. albicans biofilm persisters + clotrimazole, fluorescence viability; primary screen in compound mixtures of four per well; 120,000 tested, 0.02% active; inhibition, % at 7.6 µM; AID 1242;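 active = inhibition above 30.3% in the primary screen of four-compound pools, then above 30% when the compound was retested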;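 note: compounds exposed to preformed 24 h biofilms for 48 h; the number belongs to the whole pool; some results filed as inactive read as strong as hits; inactives centre near 12; 0% = biofilm with clotrimazole alone and 100% = kill control; retested singly at about 60 µM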
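Test system: C. albicans CAF4-2 wild-type biofilms; buffer or medium: RPMI/MOPS medium, pH 7.0; schedule: 24 h biofilm formation, then 48 h compound exposure, 37 °C; detection: Alamar Blue fluorescence; measure: percent inhibition of biofilm viability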
Numbers without * were called inactive. Some of the compounds tested; count on the stated rates, not on these rows.

SMILES	Calb biofilm kill
CC(C(=O)Nc1ccncc1)(c1ccccc1)c1ccccc1	-11.1
CCC(=O)n1nc(-c2ccc(OC)cc2)nc1NCc1cccs1	14.1
Cc1csc(NC(=O)CSc2nc3ccccc3c3c2CCCC3)n1	12.3
O=C(CNC(=O)c1cccs1)OCC(=O)c1ccc(Cl)cc1	19.8
CCNC(=S)N/N=C/c1sccc1C	4.1
COc1cc(C(=S)N2CCOCC2)ccc1OC(=O)/C=C/c1ccco1	11.6
CCOC(=O)c1ccc(NC(=O)NCCc2ccccc2OC)cc1	4.2
Cc1c(-c2ccccc2)nc2ccccc2c1C(=O)NCc1cccs1	14.0
COC(=O)CC(c1ccc(C#N)cc1)n1c(C)ccc1C (stereo not drawn)	11.8
CCCCOc1ccc(-c2nc(/C=N/c3nccs3)c(O)o2)cc1	-10.7
NC(=O)COC(=O)c1sc2cc(F)ccc2c1Cl	5.5
CC(C)OC(=O)CSc1nnc(C2CCCCC2)n1N	20.3
Cc1ccccc1OCCCC(=O)Nc1ccc(N2CCOCC2)cc1	23.4
Cc1cc(NC(=O)CSc2nnc(-c3ccccc3)o2)no1	7.6
O=C(Cn1ncc(Cl)c(Cl)c1=O)N1CCOCC1	2.0
O=C(NNC(=O)C1CCN(S(=O)(=O)c2ccc(Cl)cc2)CC1)c1ccccc1	10.6
CCN(CC)C(=O)c1sc(NC(=O)c2ccc(OC)c([N+](=O)[O-])c2)c(C#N)c1C	19.5
Cc1nn(C)cc1S(=O)(=O)Nc1ccc2c(c1)OCCO2	10.8
COc1ccc(NC(=O)CCl)cn1	15.1
Nc1nnc(SCCCC(=O)c2ccccc2)s1	4.6
COC(=O)c1ccc(=O)c2nc3/c(=C/O)c(O)cc(=O)c3[nH]c12	24.1
CC(C)c1nnc(SCC(=O)NC(C)(C)C)n1C	-0.8
CCOC(=O)c1cc(-c2ccccc2)sc1NC(=O)C(C)C	5.7
O=C(CSc1ncccn1)N1CCCc2ccccc21	12.1
CC(C)(C)n1ncc2c(=O)n(CC(=O)N3CCCC3)cnc21	24.0
Cc1nc2sccn2c(=O)c1Br	6.6
COc1cc2oc(-c3ccc(O)cc3)cc(=O)c2c(OC)c1O	5.9
COCCN1C(=O)/C(=C/c2cc3c(cc2Br)OCO3)NC1=S	-5.9
O=C(NC(=O)N1CCCc2ccccc21)c1ccccc1	4.7
Cc1cc(NC(=O)CSc2nc3c(c(=O)n2-c2ccc(Br)cc2)SCC3)no1	6.3
CCc1c(C)sc(NC(=O)c2cccs2)c1C#N	10.7
Cc1cc(C2=NNC(=NC3CC3)SC2)c(C)n1-c1c(C)n(C)n(-c2ccccc2)c1=O	-2.7
CCOC(=O)COc1cccc2c(=O)n(CC(=O)NCc3ccc(F)cc3)ccc12	26.7
Cc1ccc(NC(=O)CN2C(=O)C3C4C=CC(C4)C3C2=O)cc1 (stereo not drawn)	16.9
O=C(/C=C/c1ccccc1)NCCN1CCOCC1	10.8
CCC1=NN(C(=O)c2ccc(Br)cc2)C(O)(c2ccc(C)cc2)C1 (stereo not drawn)	7.6
COC(=O)c1cc(C(=O)c2ccc(Cl)cc2)n2c(=O)/c(=C\N(C)C)sc12	10.7
Cn1c(CC(=O)NCCO)c(Sc2ccccc2)c2ccccc21	5.7
COc1ccc(/C=N/NC(=O)CNc2ccc(Br)cc2)c(C(=O)O)c1OC	15.4
COc1ccccc1-c1nnc(SCC(=O)N2CCOCC2)o1	7.5
COc1ccccc1CN1CCNC(=O)C1CC(=O)NCCCn1cccn1 (stereo not drawn)	16.1
CCOc1ccc(C(CC(=O)O)NC(=O)C23CC4CC(CC(C4)C2)C3)cc1OC (stereo not drawn)	12.4
CCOc1ccc(NC(=S)NCc2ccc3[nH]c(C)cc3c2)cc1	5.5
CC1(C)CC(N=C2C([N+](=O)[O-])=CC=C3C2=NC2(CCCCC2)N3O)CC(C)(C)N1	14.7
CC(=O)NC(Cc1ccc(F)c(F)c1)C(=O)NC1CCN(C(=O)c2ccc(C)cc2)CC1 (stereo not drawn)	1.5

Reformatted: entries from further up.
molecule: CCc1c(C)sc(NC(=O)c2cccs2)c1C#N
  Calb biofilm kill = 10.7

molecule: Cc1cc(C2=NNC(=NC3CC3)SC2)c(C)n1-c1c(C)n(C)n(-c2ccccc2)c1=O
  Calb biofilm kill = -2.7

molecule: CCOC(=O)COc1cccc2c(=O)n(CC(=O)NCc3ccc(F)cc3)ccc12
  Calb biofilm kill = 26.7

molecule: Cc1ccc(NC(=O)CN2C(=O)C3C4C=CC(C4)C3C2=O)cc1 (stereo not drawn)
  Calb biofilm kill = 16.9

Continued.
SMILES	Calb biofilm kill
O=C(CSc1ncnc2c1oc1ccccc12)Nc1ccc2c(c1)OCCO2	17.6
CSc1nnc(SCC2=NNC(=O)SC2)s1	5.5
CC(C)(C)CC(=O)NCCc1csc(-c2ccccc2)n1	14.7
CCCC(=O)Nc1ccc(Cl)c(NC(=S)NC(=O)C(C)C)c1	3.9
Cc1ccccc1CNc1ccc(C(CC(N)=O)NC(=O)c2ccccc2)cc1[N+](=O)[O-] (stereo not drawn)	9.0
COc1ccc(/C=N/NC(=O)c2ccco2)cc1Cn1nc(C)cc1C	19.4
CC(C)C(OC(=O)c1cccs1)C(=O)NCc1ccccc1 (stereo not drawn)	0.3
Cc1ccc(C2C(C#N)=C(N)OC3=C2C(=O)CCC3)s1 (stereo not drawn)	4.9
NS(=O)(=O)c1ccc(CCNC(=O)COC(=O)/C=C/c2ccc(Cl)cc2)cc1	11.6
COc1ccc(OC)c(N/C(=N/c2nc(C)cc(C)n2)NC(C)=O)c1	16.8
COc1ccc(/C=N/N2CCOCC2)cc1OCc1ccccc1	13.6
S=c1[nH]nc(-c2cccnc2)n1/N=C/C(Cl)=C\c1ccccc1	16.4
COc1cc(OC)c(NC(C)C(=O)NCc2ccccc2)cc1Cl (stereo not drawn)	2.3
Cc1ccccc1C(=O)Nc1ccc(-c2nnc(SC(C)C(=O)O)n2C)cc1 (stereo not drawn)	18.4
CCCCCCCCCCCCOC1OC(CO)C(O)C(O)C1NC(C)=O (stereo not drawn)	-12.6

A draw from above in order of SMILES length, low to high:
SMILES	Calb biofilm kill
CSc1nnc(SCC2=NNC(=O)SC2)s1	5.5
CC(C)(C)CC(=O)NCCc1csc(-c2ccccc2)n1	14.7
Cc1ccc(C2C(C#N)=C(N)OC3=C2C(=O)CCC3)s1 (stereo not drawn)	4.9
CCCC(=O)Nc1ccc(Cl)c(NC(=S)NC(=O)C(C)C)c1	3.9
COc1ccc(/C=N/NC(=O)c2ccco2)cc1Cn1nc(C)cc1C	19.4
NS(=O)(=O)c1ccc(CCNC(=O)COC(=O)/C=C/c2ccc(Cl)cc2)cc1	11.6

The main list resumes, repeating the three entries before the break.
SMILES	Calb biofilm kill
COc1cc(OC)c(NC(C)C(=O)NCc2ccccc2)cc1Cl (stereo not drawn)	2.3
Cc1ccccc1C(=O)Nc1ccc(-c2nnc(SC(C)C(=O)O)n2C)cc1 (stereo not drawn)	18.4
CCCCCCCCCCCCOC1OC(CO)C(O)C(O)C1NC(C)=O (stereo not drawn)	-12.6
COC(=O)c1ccc(Oc2nc(SC)nc(N(C)C)n2)cc1	7.2
COc1cccc(CC2(CO)CCN(Cc3ccc4cccc(F)c4n3)CC2)c1	15.6
Cc1cc(NC(=O)CSc2ccc3nnc(CCNS(=O)(=O)c4ccccc4)n3n2)no1	15.4
COc1ccc(CCNC(=O)c2ccc(Cl)c(S(=O)(=O)N(C)c3ccccc3)c2)cc1	9.0
O=C(C1CCCN1S(=O)(=O)c1ccc(Br)cc1)N1CCOCC1 (stereo not drawn)	14.5
Cc1nn(-c2ccccc2)c(NC(=O)C(C)C)c(-c2ccccc2)c1=O	13.9
COc1cc(-c2noc(CCCC(=O)Nc3cccnc3)n2)cc(OC)c1OC	13.3
Cc1ccccc1NC(=O)C1C2C=CC(C3CC23)C1C(=O)O (stereo not drawn)	14.5
COc1ccc(Nc2ccc(S(=O)(=O)N3CCCCC3)cc2[N+](=O)[O-])cc1Cl	4.9
Cc1ccc(C(=O)COC(=O)CNC(=O)c2ccc(Br)o2)cc1[N+](=O)[O-]	9.5
Cc1cc(C=C2C(=O)CCCC2=O)c(C)n1-c1ccccc1	8.0
CCCCNC(=O)CSc1nc2ccsc2c(=O)n1CCCC(=O)NCCc1ccc(S(N)(=O)=O)cc1	2.4
COc1cc([N+](=O)[O-])cc2sc(NC(C)=O)nc12	14.7
O=C1CSC(=S)N1/N=C/c1ccc(O)c([N+](=O)[O-])c1	21.4
O=c1oc2ccccc2c(N2CCCCC2)c1CN1CCCC1	14.0

Part of the list above, as labelled records.
CCCCCCCCCCCCOC1OC(CO)C(O)C(O)C1NC(C)=O (stereo not drawn)
  Calb biofilm kill = -12.6

COC(=O)c1ccc(Oc2nc(SC)nc(N(C)C)n2)cc1
  Calb biofilm kill = 7.2

COc1cccc(CC2(CO)CCN(Cc3ccc4cccc(F)c4n3)CC2)c1
  Calb biofilm kill = 15.6

Cc1cc(NC(=O)CSc2ccc3nnc(CCNS(=O)(=O)c4ccccc4)n3n2)no1
  Calb biofilm kill = 15.4

New compounds follow:
SMILES	Calb biofilm kill
CCOC(=O)COc1cccc2c(=O)n(CC(=O)N3CCC(C)CC3)ccc12	15.3
CCN(CC)CCN1C(=O)C(=O)/C(=C(/O)c2ccc(F)cc2)C1c1ccncc1 (stereo not drawn)	6.4
O=c1cc(C(F)(F)F)[nH]c2ccc(C(F)(F)F)cc12	14.9
OCC1OC(n2cnc3c(NC4CCCCC4)ncnc32)C(O)C1O (stereo not drawn)	15.2
CCOC(=O)COc1nc(C)cc(C(F)(F)F)c1C#N	-5.0
COc1ccc(C)c2sc(=NC(=O)c3ccc(C(C)=O)cc3)n(C)c12	11.0
CC(C)C(=O)NNC(=O)c1c(O)c2ccccc2[nH]c1=O	15.0
COc1ccc(NC(=O)CC2C(=O)OCC3CCCCN32)cc1Cl (stereo not drawn)	10.4
Cc1ccc(NC(=O)/C(=C/c2ccncc2)NC(=O)c2ccccc2)cc1	15.1
